Bioassay records from PubChem BioAssay.
Ecoli rRNA inh = selective bacterial rRNA inhibition in E. coli; E. coli WT GFP vs humanized-ribosome RFP mutants, fluorescence, 24 h; stronger effect = lower value; DMSO median 0, no signal -100; GFP signal change (wild-type ribosome), % (test concentration not listed); hit rate 1.6% among 350,000;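 active = significant combined selectivity score with lowered wild-type GFP, culture density cut under 30%, mutant RFP and density less affected; inactive = any of these conditions unmet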; also: one replicate is shown; some compounds called inactive have numbers as strong as hits
Ecoli rRNA inh OD600 = recorded beside Ecoli rRNA inh, whose call it bears; OD600 change, %; measured here: OD600 growth;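 optical density of the mix in the first replicate; 0 = DMSO median and -100 = no signal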
Ecoli rRNA inh RFP = recorded beside Ecoli rRNA inh, whose call it bears; RFP signal change, %; measured here: RFP humanized mutant strains;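 first replicate; 0 = DMSO median and -100 = no signal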
The depositor's hits bear a star; & = joins results of further samples.

Ecoli rRNA inh RFP	Ecoli rRNA inh	Ecoli rRNA inh OD600	Molecule
-0.2	1.2	4.7	CO[C@H]1CN(C)C(=O)c2cc(NC(=O)c3ccc(F)cc3)ccc2OC[C@@H](C)N(C(=O)CN(C)C)C[C@H]1C
-2.7	1.2	1.1	CNC[C@H]1OCc2cn(nn2)CCCC(=O)N([C@H](C)CO)C[C@H]1C
-1.4	0.8	4.5	COc1cccc(C(=O)Nc2ccc3c(c2)OC[C@@H](C)N(C)C[C@H](C)[C@@H](OC)CN(C)C3=O)c1
11.3	-6.7	-48.5	Cc1noc(C)c1-c1ccc(C(=O)NCc2ccccc2)c2occc12
-5.8	-9.0	-10.5	CCCCn1nnnc1C(c1cc2ccccc2o1)N1CCCC1 (stereo unspecified)
1.1	-6.6	-5.7	O=C([C@@H]1N[C@@H]2c3ccc(-c4ccc(F)cc4)c(=O)n3C[C@@H]2[C@H]1CO)N1CCc2ccccc2C1
-1.9	0.6	9.6	N#Cc1ccc(-c2ccc([C@H]3[C@@H](CO)N4C(=O)CNC[C@@H]34)cc2)cc1
-2.0	6.7	9.0	O=C(NCc1ccccc1)[C@H]1CCCN1C(=O)[C@H]1CCCN1C(=O)c1ccccc1
-0.4	4.6	2.0	C[C@@H]1CCCCO[C@H](CN(C)C(=O)Nc2ccc(C(F)(F)F)cc2)[C@H](C)CN([C@H](C)CO)C(=O)c2cc(NC(=O)Nc3cccc4ccccc34)ccc2O1
-2.2&0.6	-4.3&8.2	7.8&8.8	O=C(N[C@@H]1CC[C@H](CCn2cc(-c3ccccn3)nn2)O[C@@H]1CO)c1ccncc1

One compound at a time (already shown).
`COc1cccc(C(=O)Nc2ccc3c(c2)OC[C@@H](C)N(C)C[C@H](C)[C@@H](OC)CN(C)C3=O)c1` in the list: Ecoli rRNA inh RFP = -1.4; Ecoli rRNA inh = 0.8; Ecoli rRNA inh OD600 = 4.5
`CCCCn1nnnc1C(c1cc2ccccc2o1)N1CCCC1` (stereo unspecified) in the list: Ecoli rRNA inh RFP = -5.8; Ecoli rRNA inh = -9.0; Ecoli rRNA inh OD600 = -10.5

Additional entries follow:
Ecoli rRNA inh RFP	Ecoli rRNA inh	Ecoli rRNA inh OD600	Molecule
-0.7	-3.7	-5.7	Cc1ccc(S(=O)(=O)N[C@@H]2CC[C@H](CCn3cc(C4CCCCC4)nn3)O[C@H]2CO)cc1
-1.4&-4.1	4.9&-0.1	4.7&5.0	C/C=C/c1ccc(C2[C@H]3CNC[C@@H]2N3C(=O)NCCC)cc1 (stereo partly specified)
3.2	-2.7	-4.4	C[C@@H](C(=O)N(C)C[C@H]1OCc2ccccc2-c2c(n(C)c3ccccc23)C(=O)N([C@@H](C)CO)C[C@@H]1C)c1ccccc1
-2.2	4.6	0.7	CC(C)NC(=O)N(C)C[C@@H]1Oc2ccc(NC(=O)Nc3ccc(F)cc3)cc2CC(=O)N([C@@H](C)CO)C[C@@H]1C
-2.8	-2.4	-0.5	CC(C)c1cn(CC[C@H]2CC[C@@H](NS(=O)(=O)c3ccc(Cl)cc3)[C@@H](CO)O2)nn1
1.0	0.7	2.1	Cc1noc(C)c1NC(=O)N(C)C[C@@H]1Oc2ccc(NC(=O)Nc3ccc(F)cc3)cc2CC(=O)N([C@@H](C)CO)C[C@H]1C
0.2	-4.7	-1.2	O=C(NCC[C@H]1CC[C@H](NS(=O)(=O)c2ccc(Cl)cc2)[C@H](CO)O1)Nc1ccc(F)cc1
-4.4	-0.8	16.1	C[C@H]1CN([C@@H](C)CO)C(=O)c2cc(NS(=O)(=O)c3cn(C)cn3)ccc2O[C@@H]1CN(C)Cc1ccccc1
1.4	4.5	-5.1	COC(=O)[C@]12C[C@H](CC(=O)NCCC(C)C)C(=O)N(Cc3ccccc3)C1=C[C@H](C1CCCC1)O[C@@H]2C
31.7	0.3	-43.7	C[C@H]1CN([C@@H](C)CO)S(=O)(=O)c2ccc(C#Cc3ccc(F)cc3)cc2O[C@H]1CN(C)S(C)(=O)=O

(continued)
Ecoli rRNA inh RFP	Ecoli rRNA inh	Ecoli rRNA inh OD600	Molecule
21.2	-22.1	-61.0	COc1ccc(-c2ccc([C@@H]3[C@H]4CN(C(=O)C5CCCC5)CC(=O)N4[C@H]3CO)cc2)cc1
2.2	3.3	4.3	COc1cccc(S(=O)(=O)N[C@@H]2CC[C@@H](CCNC(=O)Cc3ccncc3)O[C@H]2CO)c1
-1.9	1.7	3.4	COc1ccc(CNC(=O)C[C@@H]2C[C@@H]3c4cc(NC(=O)C5CCC5)ccc4O[C@@H]3[C@H](CO)O2)cc1
-0.5	6.1	14.5	CCCNC(=O)N1CC2(C1)[C@H](c1ccccc1)[C@H](CO)N2CC1CCOCC1
5.4	13.4	8.8	COCCN1Cc2cc(C(=O)OC)c3c(c2C1=O)c1cc(F)ccc1n3S(=O)(=O)c1ccc(C)cc1
-0.6	1.1	-0.1	Cc1ccc(S(=O)(=O)N(C)C[C@@H]2Oc3ccc(NS(=O)(=O)c4cn(C)cn4)cc3CC(=O)N([C@@H](C)CO)C[C@H]2C)cc1
-2.5	-5.1	4.6	C/C=C/c1ccc([C@H]2[C@@H](CNC(=O)NC(C)C)N(C(=O)C3CCC3)[C@H]2CO)cc1
-1.5	-0.1	1.2	O=C(N[C@@H]1C=C[C@@H](CC(=O)N2CCOCC2)O[C@H]1CO)c1ccc2c(c1)OCO2
-4.7	2.4	-0.5	C[C@@H]1CN([C@H](C)CO)C(=O)c2cc(NS(C)(=O)=O)ccc2O[C@H]1CN(C)Cc1ccccc1
-1.8	3.0	11.6	CCC(=O)N1CC2(C1)[C@@H](c1ccccc1)[C@@H](CO)N2C(=O)c1ccccc1

No new results follow: entries from further up.
Ecoli rRNA inh RFP	Ecoli rRNA inh	Ecoli rRNA inh OD600	Molecule
-4.7	2.4	-0.5	C[C@@H]1CN([C@H](C)CO)C(=O)c2cc(NS(C)(=O)=O)ccc2O[C@H]1CN(C)Cc1ccccc1
-1.8	3.0	11.6	CCC(=O)N1CC2(C1)[C@@H](c1ccccc1)[C@@H](CO)N2C(=O)c1ccccc1

(list continues)
Ecoli rRNA inh RFP	Ecoli rRNA inh	Ecoli rRNA inh OD600	Molecule
0.4	3.0	7.3	C[C@@H]1CN([C@@H](C)CO)C(=O)Cc2cc(NC(=O)Nc3ccc(C(F)(F)F)cc3)ccc2O[C@@H]1CN(C)C(=O)Nc1ccc(C(F)(F)F)cc1
-17.6	-57.6	-81.2	O=C(C1CCCC1)N1CC2(C1)[C@@H](c1ccccc1)[C@@H](CO)N2Cc1ccc(Cl)cc1
1.8	1.1	4.5	C[C@@H]1CN([C@@H](C)CO)C(=O)c2cccc(NC(=O)c3ccncc3)c2O[C@@H]1CN(C)C
-2.0	-4.2	14.9	Cc1ccc(-c2cnc3c(c2)C(=O)N([C@H](C)CO)C[C@@H](C)[C@H](CN(C)S(C)(=O)=O)O3)cc1
5.4	3.3	5.7	COc1ccc2c3c(n(C)c2c1)[C@@H](CO)N(Cc1ccc(F)cc1)CC31CCN(CC2CCOCC2)CC1
-4.8	-2.3	4.7	C[C@H]1CN([C@@H](C)CO)C(=O)c2cc(C#Cc3ccccc3F)cnc2O[C@@H]1CN(C)S(=O)(=O)c1ccccc1
0.1	3.7	18.5	COc1ccc(-c2cnc3c(c2)C(=O)N([C@H](C)CO)C[C@@H](C)[C@H](CN(C)Cc2cccnc2)O3)cc1
-0.1	-0.6	2.2	C[C@@H]1CN([C@@H](C)CO)C(=O)CCCn2nncc2CO[C@H]1CN(C)Cc1ccc(C(=O)O)cc1
-2.8	1.7	6.2	C[C@@H]1CN([C@H](C)CO)C(=O)Cc2cc(NS(C)(=O)=O)ccc2O[C@@H]1CN(C)C(=O)Nc1ccc2c(c1)OCO2
1.3&6.0	1.2&17.1	0.8&11.9	COC(=O)N(C)C[C@H]1OCc2cn(nn2)CCCC(=O)N([C@H](C)CO)C[C@@H]1C

(cont.)
Ecoli rRNA inh RFP	Ecoli rRNA inh	Ecoli rRNA inh OD600	Molecule
-1.7	0.4	5.7	CCC(=O)N(C)C[C@H]1Oc2cc(C#CC3(O)CCCC3)ccc2S(=O)(=O)N([C@H](C)CO)C[C@H]1C
-3.0	4.6	12.3	COCC(=O)Nc1ccc2c(c1)C(=O)N(C)[C@H]1CC[C@@H](CC(=O)NCC3CC3)O[C@@H]1CO2
1.9	17.0	12.9	CNC[C@@H]1Oc2ncc(C3=CCCC3)cc2C(=O)N([C@H](C)CO)C[C@@H]1C
0.7	-2.0	-0.6	COc1ccc(S(=O)(=O)Nc2ccc3c(c2)OC[C@@H](C)N(C(=O)NC(C)C)C[C@@H](C)[C@H](OC)CN(C)C3=O)cc1
1.1	1.3	-2.3	COc1cccc(-c2cnc3cccnn23)c1
26.3	-16.5	-43.2	COc1ccc2c3c(n(C)c2c1)[C@H](CO)N(C(=O)Nc1ccc(F)cc1)CC31CN(Cc2cccc(F)c2)C1
-0.8	2.7	-2.0	CN1C(=O)c2cc(NC(=O)C3CCCC3)ccc2OC[C@@H]2O[C@@H](CC(=O)NCCc3ccncc3)CC[C@H]21
-2.3	0.9	2.8	O=C(C[C@@H]1CC[C@H]2[C@@H](COC[C@@H](O)CN2Cc2cccc(F)c2)O1)NCc1ccncc1
1.1	2.1	4.1	N#C[C@@H]1[C@H](c2ccc(C3=CCCCC3)cc2)[C@@H](CO)N1S(=O)(=O)c1cccc(F)c1
0.9	-2.6	-5.0	Cc1cccc(S(=O)(=O)N2C[C@@H]3[C@H](c4ccccc42)[C@@H](CO)N3CC2CCOCC2)c1

Overlap with the part before: 2 entries, then new ones.
Ecoli rRNA inh RFP	Ecoli rRNA inh	Ecoli rRNA inh OD600	Molecule
1.1	2.1	4.1	N#C[C@@H]1[C@H](c2ccc(C3=CCCCC3)cc2)[C@@H](CO)N1S(=O)(=O)c1cccc(F)c1
0.9	-2.6	-5.0	Cc1cccc(S(=O)(=O)N2C[C@@H]3[C@H](c4ccccc42)[C@@H](CO)N3CC2CCOCC2)c1
-0.8	4.5	14.7	CO[C@@H](CN(C)CC1CCOCC1)[C@@H](C)CN(C(=O)Nc1ccc(F)cc1)[C@@H](C)CO
-2.2	-13.8	-20.3	CC(=O)NCCNc1nc2cc(-c3cnn(CCC(C)C)c3)sc2c(=O)n1C
3.2	7.1	-0.8	C[C@H]1CN([C@@H](C)CO)C(=O)c2cccc(NS(=O)(=O)c3ccccc3)c2O[C@H]1CN(C)C(=O)Nc1cccc2ccccc12
1.0	-0.3	3.5	CC=Cc1ccc2n(c1=O)C[C@@H]1[C@@H](CO)[C@H](C(=O)NCC3CC3)N(C(=O)C3CCOCC3)[C@H]21 (mixture of isomers)
-4.3	-1.4	4.0	C[C@@H]1CCCCO[C@@H](CN(C)Cc2ccncc2)[C@@H](C)CN([C@@H](C)CO)C(=O)c2cc(N(C)C)ccc2O1
-1.1	-6.6	-8.2	C[C@H](CO)N1C[C@H](C)[C@H](CN(C)C(=O)Nc2cccc3ccccc23)Oc2c(NC(=O)Nc3ccc(F)cc3)cccc2C1=O
1.7	4.2	9.0	CCc1c(-c2cccc(Cl)c2)ncn1Cc1cccc(-c2ccccc2)c1
-5.3	-1.7	8.2	C/C(Nc1ccc(Cl)c(Cl)c1)=C1/CCOC1=O
-3.6	3.4	10.4	O=C(C[C@@H]1C=C[C@H](NC(=O)Nc2ccc(F)cc2)[C@@H](CO)O1)NCc1ccccn1
-0.2	1.6	0.7	CO[C@H]1CN(C)C(=O)c2ccc(NC(=O)C3CC3)cc2OC[C@H](C)N(CC2CC2)C[C@H]1C

(continued)
Ecoli rRNA inh RFP	Ecoli rRNA inh	Ecoli rRNA inh OD600	Molecule
1.0	14.0	4.1	CCCc1cc2c(OC)ccc(O)c2c(=O)n1C
1.9	12.2	16.5	CN1C(=O)C(c2cn(C)c3ccccc23)(c2cn(C)c3ccccc23)c2cc(F)ccc21
-10.9	-44.3	-73.5	Clc1ccc2nc(C3CCCCC3)c(Cc3ccsc3)n2c1
2.9	14.1	-2.2	CCOC(=O)CCCCCC(=O)Nc1ccc2c(c1)C(=O)N([C@H](C)CO)C[C@H](C)[C@H](CN(C)C(=O)C1CCCCC1)OCCCC[C@@H](C)O2
-2.4	0.0	5.2	O=C(C[C@H]1CC[C@@H](NC(=O)c2ccc3c(c2)OCO3)[C@@H](CO)O1)NC1Cc2ccccc2C1
0.5	13.8	6.6	CCCS(=O)(=O)NC(=O)C1(C)CCN(C(=O)c2cc(C)on2)C1 (stereo unspecified)
3.0	2.1	-1.6	CCCNC(=O)Nc1ccc2c(c1)C(=O)N(C)C[C@H](OC)[C@@H](C)CN(C(=O)C1CCCCC1)[C@H](C)CO2
-0.2	4.1	-2.9	COc1ccc(S(=O)(=O)N(C)C[C@@H]2Oc3c(NC(=O)Nc4cccc5ccccc45)cccc3C(=O)N([C@H](C)CO)C[C@H]2C)cc1
25.2	-4.9	-31.0	CCNC(=O)c1cc2c(c(-c3cccc(-c4cccc(F)c4)c3)n1)[C@H](CCO)N([S@@](=O)C(C)(C)C)C2
0.6	1.5	9.5	C[C@@H]1CN([C@@H](C)CO)C(=O)c2cc(NC(=O)Nc3cccc4ccccc34)ccc2O[C@@H]1CN(C)Cc1ccc(C(=O)O)cc1
-21.6	-57.0	-76.7	Fc1ccc(NC(=S)SCc2ccc3c(c2)OCO3)cc1F
-2.0	6.9	7.1	CC(C)CC#Cc1ccc2c(c1)O[C@H](CN(C)CC1CCOCC1)[C@H](C)CN([C@H](C)CO)S2(=O)=O

Only part of the results is shown; rates above refer to the full screens.
